# HPGD block: inhibitors of human 15-hydroxyprostaglandin dehydrogenase (HPGD). Potency, µM, for the others: at the top dose activity change, negative = inhibition, hits mostly inhibitors. 150,000 tested, 4.3% active. P15428. purified HPGD, NADH fluorescence kinetic, PGE2 substrate; active = well fitted inhibition curve with a large enough effect (not every such curve was filed as active); inconclusive = small, poorly fitted or top-dose-only effect, or another doubt; inactive = no such curve, though single readings can be large or run the other way;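 also: top concentration of the series not given in the record; plate controls included wells without enzyme; inactives centre near -10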
# Target sequence (P15428 whole entry, looked up): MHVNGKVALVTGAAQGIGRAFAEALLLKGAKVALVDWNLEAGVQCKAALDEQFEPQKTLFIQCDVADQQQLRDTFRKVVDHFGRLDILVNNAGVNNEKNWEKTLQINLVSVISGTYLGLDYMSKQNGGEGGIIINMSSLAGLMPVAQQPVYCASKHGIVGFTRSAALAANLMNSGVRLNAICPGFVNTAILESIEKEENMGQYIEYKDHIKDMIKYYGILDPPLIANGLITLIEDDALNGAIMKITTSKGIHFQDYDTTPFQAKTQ
#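 20 nM HPGD preincubated 15 min at room temperature with compound in 50 mM Tris-HCl pH 8, 0.01% Tween 20. Started with 1 mM NAD+ and 30 uM prostaglandin E2; NADH fluorescence (360/450 nm) read 5 times over 30-s intervals, last minus first.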
# * = called active by the depositor; ? = inconclusive; & = joins results of further samples. % is scaled to controls: 0 for no effect and ±100 for the full control effect; potency is read from the fitted curve at half-maximal effect. A portion of the library; count on the stated rates, not on these rows.
SMILES,HPGD block
CC1CCCC(C)N1C(=O)CSc1nnc(CSc2ncccn2)n1C (configuration not stated),-12.3%
CCCCn1c(SCC(=O)Nc2cc(C)on2)nc2c1c(=O)n(C)c(=O)n2C,-4.7%
O=C(Nc1ccccc1N1CCN(C(=O)c2ccc(Cl)cc2)CC1)c1cc(Br)ccc1Cl,-14.8%
CCOc1ccc(C(=O)NCc2ccncc2)cc1,-5.9%
C=C1c2cccc(C(F)(F)F)c2O[C@H](C(=O)OCC)C1OC (mixture of isomers),-8.7%
CC1=CC(C)(C)N(C(=O)CSc2nnc(N)s2)c2c(C)cc(C)cc21,-8.3%
COc1ccc(/C(=N\O)c2ncc(C(F)(F)F)cc2Cl)cc1,-12.0%
Cc1cccc(Nc2nc(N3CCCC3)nc(N3CCCC3)n2)c1,-6.1%
CC1CCN(S(=O)(=O)c2cc(C(=O)N3CCN(c4ncccn4)CC3)ccc2Br)CC1,-7.4%
Cc1ccc(NCC(=O)N/N=C/c2ccc(-c3cccc(C(F)(F)F)c3)o2)cc1,-5.2%
CCCC(=O)c1ccc(N2CCN(C(=O)OCC)CC2)c(F)c1,-19.4%
Cc1ccc(C(NC(=O)c2ccccc2)C(Cl)Cl)cc1 (configuration not stated),-0.5%
CCN1CCN(Cc2nc3c(c(=O)[nH]c(=O)n3C)n2Cc2ccccc2Cl)CC1,-3.1%
CSC1=C(C#N)C(c2ccccc2Cl)C(C(=O)c2cccs2)C(O)(C(F)(F)F)N1 (configuration not stated),2.4%
O=C(O)c1ccc(CNCc2cccc(Cl)c2Cl)cc1,-9.5%
O=C(CN1CCN(Cc2ccccc2)CC1)N/N=C/C=C/c1ccccc1[N+](=O)[O-],-8.8%
Nn1c(SCC(=O)NC(=O)NC2CCCC2)nnc1-c1ccccc1F,-10.5%
Cc1cc(Nc2c(C)n(C)n(-c3ccccc3)c2=O)n2c(nc3ccccc32)c1C#N,-15.4%
C=C1C[C@@]23C[C@@]1(O)CCC2[C@@]12C=CC(O)[C@](C)(C(=O)O1)C2C3C(=O)O (some centres not stated),-5.1%
CCCN(CCC)CC(O)Cn1cc(/C=C/C(=O)c2cccs2)c2ccccc21 (configuration not stated),-1.6%
O=c1cc(O)c2c(=O)n(-c3ccccc3)c3c(c2o1)CCCCC3,-14.6%
COc1ccc(C)cc1NC(=O)CN1CCN(S(=O)(=O)c2ccc(C(C)C)cc2)CC1,-13.1%
Nc1ncnc(N2CCOCC2)c1N,-2.6%
CC(C)=NOC(=O)c1ccc(-c2ccccc2)cc1,-7.0%
Cc1c(-c2nnnn2-c2ccc(F)cc2)cnc2cc3c(cc12)OCO3,-15.4%

# An excerpt of these results, bar-delimited:
SMILES | HPGD block
CC1CCCC(C)N1C(=O)CSc1nnc(CSc2ncccn2)n1C (configuration not stated) | -12.3%
O=c1cc(O)c2c(=O)n(-c3ccccc3)c3c(c2o1)CCCCC3 | -14.6%
C=C1c2cccc(C(F)(F)F)c2O[C@H](C(=O)OCC)C1OC (mixture of isomers) | -8.7%
COc1ccc(/C(=N\O)c2ncc(C(F)(F)F)cc2Cl)cc1 | -12.0%
CCN1CCN(Cc2nc3c(c(=O)[nH]c(=O)n3C)n2Cc2ccccc2Cl)CC1 | -3.1%
Cc1cc(Nc2c(C)n(C)n(-c3ccccc3)c2=O)n2c(nc3ccccc32)c1C#N | -15.4%
CCCCn1c(SCC(=O)Nc2cc(C)on2)nc2c1c(=O)n(C)c(=O)n2C | -4.7%

# Three compounds out of the list above, sorted by their value in HPGD block, smallest number first.
SMILES,HPGD block
O=c1cc(O)c2c(=O)n(-c3ccccc3)c3c(c2o1)CCCCC3,-14.6%
COc1ccc(C)cc1NC(=O)CN1CCN(S(=O)(=O)c2ccc(C(C)C)cc2)CC1,-13.1%
CCN1CCN(Cc2nc3c(c(=O)[nH]c(=O)n3C)n2Cc2ccccc2Cl)CC1,-3.1%

# Carrying on.
SMILES,HPGD block
O=[N+]([O-])c1ccc(N2CCN(S(=O)(=O)c3ccccc3)CC2)cc1NCC1CCCO1 (configuration not stated),-0.9%
NS(=O)(=O)c1ccc(NC(=S)NC(=O)c2ccco2)cc1,-21.0%
Nc1ccccc1C(=O)Nc1cccc(C(=O)O)c1,?
COc1ccc(-c2noc(CN(C)S(=O)(=O)c3ccc(Cl)cc3)n2)cc1OC,-10.8%
CCOC(=O)C1=C(C)Nc2sc(C(=O)c3ccc(F)cc3)c(N)c2C1c1ccc(C(=O)OC)cc1 (configuration not stated),-13.5%
CCc1nccn1C(=O)c1cnn2c(C(F)F)cc(-c3ccccc3)nc12,?
Cc1ccc(N(CC(O)Cn2c3ccccc3c3ccccc32)S(C)(=O)=O)c(C)c1 (configuration not stated),-22.4%
COc1ccccc1N1CCN(C(c2ccc(C)cc2)c2nnnn2C(C)C)CC1 (configuration not stated),-4.6%
CCCC(=O)c1cc(-c2nc3ccccc3n2C)n(C)c1,?
CCSc1nnc([C@H](Cc2ccccc2)NC(=O)OC(C)(C)C)o1,-4.1%
CC(Sc1nnc2c(n1)C1CCC2(C)C1(C)C)C(=O)Nc1ccccc1 (configuration not stated),-10.3%
COc1ccc(C(=O)CSc2nnc(-c3ccccc3)o2)cc1,-16.3%
COc1cccc(NS(=O)(=O)CC23CCC(CC2=O)C3(C)C)c1 (configuration not stated),-7.1%
CC(C)(C)n1nc2c(c1NC(=O)c1ccco1)CS(=O)C2 (configuration not stated),1.4%
CCN(CC)c1ccc(C=N/C(C#N)=C(\N)C#N)cc1,-1.1%
CCSc1nnc(-c2cccc(S(=O)(=O)N(CC)CC)c2)n1Cc1ccccc1,-3.1%
Nc1c(-c2ccc(F)cc2)cnc2ncnn12,-24.4%
Cc1onc(-c2c(Cl)cccc2Cl)c1C(=O)n1nnc2ccccc21,-9.7%
Cc1csc(NC(=O)/C=C/c2ccc3c(c2)OCO3)n1,-28.4%
CCN1C(=O)OC2(CCCCC2)C1(C)O (configuration not stated),-13.4%
CCOC(=O)c1cc(NC(=O)c2cc(C)on2)cc(C(=O)OCC)c1,-12.0%
CC(=O)N1CCC[C@@]2(CCN(Cc3nccs3)C2)C1,-12.4%
CCCCNC(=O)CCCCC(=O)N/N=C/c1ccccc1Cl,-14.7%
CC(C)C(=O)N1CCN(c2nc(-c3ccccc3)c3c(c2C#N)CC(C)(C)OC3)CC1,?
CCN(CC)C(=O)CN1C(=O)C2CC=C(Cl)CC2C1=O (configuration not stated),-11.8%

# Individual results from the list:
# `CCN(CC)C(=O)CN1C(=O)C2CC=C(Cl)CC2C1=O` (configuration not stated) | HPGD block: -11.8%
# `CCCC(=O)c1ccc(N2CCN(C(=O)OCC)CC2)c(F)c1` | HPGD block: -19.4%

# Going on with the list:
SMILES,HPGD block
Cc1cccc(C)c1NC(=S)N(Cc1ccco1)C1CCN(C(C)C)CC1,-3.2%
O=C(NCc1ccccc1)[C@H]1C[C@@H]1[C@H](NP(=O)(c1ccccc1)c1ccccc1)c1ccccc1,-16.1%&-9.5%
CCc1cc2c(NCc3ccco3)ncnc2s1,?
CCOc1ccc2nc(NCCNS(=O)(=O)c3ccccc3)c(C#N)cc2c1,?
O=C(Nc1ccc(Cl)cc1)N1CCC(c2nc(-c3ccc(F)cc3)no2)CC1,-20.1%
C(=N\Nc1ncnc2sc3c(c12)CCC3)/c1cccs1,-21.2%
CC(=O)c1ccc(NC(=O)CSc2nc(N)c3cc4c(nc3n2)CCCC4)cc1,?
CC1(C)CC2CC(C)(CN2C(=O)COC(=O)c2ccc(Cl)cc2N)C1 (configuration not stated),?
CCOC(=O)c1ccc[n+](CC(=O)c2ccc(OC)cc2)c1,-20.1%
C=CCn1c(SCC(=O)c2ccc(Cl)s2)nc2ccccc2c1=O,-13.0%
NNc1nc2ccc(Cl)cc2s1,-16.6%
CCOc1ccc(NC(=O)CSc2nnc(CCNC(=O)c3ccc(OC)cc3)n2CC)cc1,-8.3%
Cc1ccc(C2NC(=O)c3c(sc4c3CCN(C)C4)N2)s1 (configuration not stated),?
Cn1c(=O)c2c(nc(Oc3ccc4c(c3)OCO4)n2Cc2ccc(Cl)cc2)n(C)c1=O,-0.7%
CCS(=O)(=O)Nc1ccc(-c2cc(-c3ccccc3)c3cc(C)ccc3n2)cc1,?
C=CCN1C(=O)/C(=C\c2ccc(Cl)cc2)N=C1SCC(=O)NC1CCCCC1,-4.9%
CC(C)n1c(-c2ccc(C(C)(C)C)cc2)n[nH]c1=S,-22.6%
CC(=O)Nc1nonc1NC(=O)c1ccc(C(C)(C)C)cc1,-17.9%
O=C(NCCCN1CCOCC1)c1ccc(Cl)c(S(=O)(=O)N2CCCCCC2)c1,-0.9%
Cc1ccc2oc(=O)c3cnn(CC(=O)NCCC(C)C)c3c2c1,0.8%
C/C(=N/NS(C)(=O)=O)c1ccc2ccccc2c1,-11.3%
Cc1c(Cl)cccc1NC(=O)[C@@H](NC(=O)c1ccccc1Cl)C(C)C,-9.5%
CS(=O)(=O)N1CCC2(CC1)CN(C(=O)Nc1cccc(C#N)c1)C2,?
CC(C)c1ccc(N2C(=O)[C@@H]3Cc4ccccc4CN3C2=O)cc1,-9.0%
CCOC(=O)COc1ccccc1C1Nc2ccccc2C(=O)N1c1cccc(Cl)c1 (configuration not stated),?

# Given as labelled records: part of the list above.
Cc1cccc(C)c1NC(=S)N(Cc1ccco1)C1CCN(C(C)C)CC1
  HPGD block: -3.2%
O=C(NCc1ccccc1)[C@H]1C[C@@H]1[C@H](NP(=O)(c1ccccc1)c1ccccc1)c1ccccc1
  HPGD block: -16.1%&-9.5%

# Continuation:
SMILES,HPGD block
CCn1nc(C(=O)Nc2ccc(S(=O)(=O)Nc3nccs3)cc2)c2ccccc2c1=O,-21.3%
CCOC(=O)c1c(Nc2ccccc2N)cc(C)nc1C,-5.7%
O=C(CCSc1nnc2ccc3ccccc3n12)Nc1ccc(F)cc1,?
CCOC(=O)C1=c2/c(=C/c3ccccc3OC)c(N)c(C#N)n2C(=O)C(c2ccccc2OC)S1 (configuration not stated),-13.4%
Cc1ccc(-c2nc(CS(=O)CC(=O)N3CCN(c4ncccn4)CC3)c(C)o2)cc1 (configuration not stated),?
O=C(c1cccs1)N1CCN(Cc2ccccc2[N+](=O)[O-])CC1,-4.7%
CCOC(=O)NC1C=CS(=O)(=O)C1 (configuration not stated),-2.4%
O=C(CSc1ccc(-c2nc3ccccc3[nH]2)cn1)Nc1ccc(S(=O)(=O)N2CCCC2)cc1,?
O=C(/C=C/c1ccco1)N/C(=C\c1ccccc1)C(=O)NCCc1nc2ccccc2[nH]1,-8.0%
CCOC(=O)c1c(CSC(=N)N)n(-c2ccc(Br)cc2)c2cc(Br)c(OC(C)=O)cc12,?
Cc1cccc(COC[C@H](Cc2ccccc2)N2CCN(C(=O)c3cccc(C)c3)CCC2=O)c1,-0.1%
CC(C)CCNC(=O)CCCOc1ccccc1,?
COCCCNC(=O)Cn1nnc(-c2ccc(NC(=O)c3ccccc3F)cc2)n1,-20.6%
Cc1nc2nc(C)n(-c3ccccc3)c2s1,-11.2%
COc1cccc(OC)c1C(=O)Nc1ccc2c3c(cccc13)CC2,-5.4%
COc1ccc(C)cc1NC(=O)c1ccc(OC(F)F)cc1,-12.9%
COc1cc(C)nc(NCc2ccccc2)n1,-17.8%
O=C(CSc1nnc(SCC(=O)NCc2ccc3c(c2)OCO3)s1)NCc1ccc2c(c1)OCO2,-3.6%
O=c1c(-c2ccccc2)coc2cc(O)cc(O)c12,6.31µM*
Cc1cc(C)nc(N2CCCC(C(=O)NCC(c3ccccc3)c3ccccc3)C2)n1 (configuration not stated),-18.1%
Cc1nc(N2CCCCC2)c2ccsc2n1,-2.2%
C=CCn1c(C)c(C(C)=O)c(N2CCOCC2)nc1=S,2.2%
COc1cc(C(CCN2CCOCC2)c2c(OC)cc(OC)c3ccc(=O)oc23)cc(OC)c1OC (configuration not stated),-14.2%
Cc1n[nH]c(C)c1SCC(=O)Nc1ccc(F)cc1,-10.7%
CCOC(=O)/C(C#N)=C/c1ccc(OC)c(OC)c1,-3.4%
Nc1nc(Nc2ccccc2)nc2ccccc12,-10.4%
CCN(C(=O)Cn1c(=O)oc2ccccc21)c1cccc(C(F)(F)F)c1,1.8%
CCOc1ccc2nc3sc(C(=O)N4CCN(C)CC4)c(N)c3cc2c1,14.1µM*
Clc1ccc(Cc2ccccc2)nn1,-3.9%

# Assay outcomes as filed in PubChem.
